CtBP-E1A inh: blocks the CtBP interaction with E1A | AlphaScreen GST-E1A/His-CtBP binding, 1536-well; hits give low values; control for the full effect not named in the record | activity change, % (concentration not given with the values) | actives 0.49% (n = 340,000) | AID 651724; in the data active means activity change below about -65%; inconclusive means about -30% to -65%; inactive means above about -30%; also: % is scaled to controls: 0 for no effect and ±100 for the full control effect
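AlphaScreen with 125 nM GST-E1A and 125 nM His-CtBP (5X stocks) in Tris pH 8.0, 300 mM NaCl, BSA, Tween 20, TCEP. Compounds preincubated 2 h at 37 deg C, then glutathione donor/nickel acceptor beads added for 1 h at 37 deg C in dark.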
Six1-Eya2 inh: inhibitors of human Six1/Eya2 interaction; AlphaScreen GST-Six1/His-Eya2 binding, biochemical; hits give low values; control for the full effect not named in the record; actives 0.56% (n = 360,000); activity change, % (concentration not given with the values); Q15475+O00167; in the data active = activity change below about -65%; inconclusive = about -30% to -65%; inactive = above about -30%; also: % is scaled to controls: 0 for no effect and ±100 for the full control effect
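Homogeneous AlphaScreen proximity assay pairing GST-Six1 with His-tagged Eya2 (added as 5X mix: 250 nM and 500 nM) in 50 mM Tris pH 8.0, 300 mM NaCl, 1 mM TCEP. Glutathione donor and nickel acceptor beads; 1 h, 37 °C, dark.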
PINK1 expr mod: modulators of PINK1 expression | AID 624263 | actives 0.2% (n = 410,000) | Potency, µM (doses to about 76.6 µM), inactives show at the highest dose activation (PINK1 increase), most hits filed as activators | PINK1 immunofluorescence, high-content cytometry, 24 h; active = well fitted activation curve with a large enough effect; inconclusive = small, poorly fitted or top-dose-only effect; inactive = flat fitted curve, though single readings scatter; cell line not stated here;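 also: potency is read from the fitted curve at half-maximal effect; % of control where 0% means no effect; nearly all actives have a fitted effect of over 65% in size; a mitochondrial uncoupler was the plate control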
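Cells are seeded, rested 12 hours, then given compound at five concentrations or DMSO for 24 hours. After fixation, blocking and antibody staining, PINK1 amount and mitochondrial localization are scored; CCCP serves as control.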
TRPML1 inh: human mucolipin-1 channel inhibition; activity change, negative = inhibition, % (test concentration not listed); AID 624415; TRPML1-inducible cells, Ca2+ dye fluorescence, FDSS; hits give low values; inhibition of EC80 agonist-evoked calcium signal; actives 0.02% (n = 390,000); in the data active means activity change below about -50%; inconclusive means about -30% to -50%; inactive means above about -30%;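 also: stimulus is agonist 54-4 at its EC80 concentration; % is scaled to controls: 0 for no effect and ±100 for the full control effect; compound concentration not given in the record; the text of the record puts the active cut at -80%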
Target sequence (Q9GZU1 whole entry, looked up): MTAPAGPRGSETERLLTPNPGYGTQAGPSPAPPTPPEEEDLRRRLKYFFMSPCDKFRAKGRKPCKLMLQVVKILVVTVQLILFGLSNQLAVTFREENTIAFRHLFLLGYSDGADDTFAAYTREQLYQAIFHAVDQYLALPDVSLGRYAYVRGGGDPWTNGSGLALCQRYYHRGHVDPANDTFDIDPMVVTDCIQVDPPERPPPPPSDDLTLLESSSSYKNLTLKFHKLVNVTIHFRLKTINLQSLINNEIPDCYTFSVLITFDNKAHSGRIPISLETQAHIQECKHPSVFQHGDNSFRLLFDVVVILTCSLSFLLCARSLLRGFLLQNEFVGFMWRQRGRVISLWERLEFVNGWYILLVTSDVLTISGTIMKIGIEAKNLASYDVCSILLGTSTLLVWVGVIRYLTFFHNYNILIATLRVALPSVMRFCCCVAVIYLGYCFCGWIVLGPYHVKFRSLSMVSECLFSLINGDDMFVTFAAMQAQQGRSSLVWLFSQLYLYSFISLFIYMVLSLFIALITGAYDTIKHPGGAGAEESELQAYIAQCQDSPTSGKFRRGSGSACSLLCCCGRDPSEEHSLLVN
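Calcium fluorescence in TRPML1-DL cells induced overnight with Tet: a 110 s read after compound pin addition, then a 110 s antagonist read after challenge with 54-4 at 4 uM final (EC80).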
TRPML1 ag: human mucolipin-1 channel agonism; activation, % (test concentration not listed); actives 0.12% (n = 410,000); TRPML1-expressing cells, Ca2+ dye fluorescence, FDSS; host cell line not named in the record; reference of the full effect not given here; in the data active = activation above about 50%; inconclusive = about 30% to 50%; inactive = below about 30%; also: 0% is about no effect; the text of the record puts the active cut at 80%
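In this qHTS format, compounds were pin-transferred onto Ca8-dye-loaded TRPML1-DL cells induced with Tet overnight, and intracellular Ca2+ fluorescence was recorded kinetically for 110 s after a 10 s baseline. A subsequent 4uM final 54-4 (EC80) addition followed by a second 110 s read served as the antagonist phase.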
D2 ag: human D2 receptor agonism in beta-arrestin assay; activation, % (no concentration beside the values); DiscoveRx PathHunter D2 beta-arrestin, luminescence, 90 min; 100% = 57 uM dopamine signal; AID 624465; actives 0.084% (n = 360,000); in the data active = activation above about 40%; inconclusive = about 15% to 40%; inactive = below about 15%; also: compound concentration not given in the record; the text of the record calls up to 30% inactive
Target sequence (P14416 whole entry, looked up): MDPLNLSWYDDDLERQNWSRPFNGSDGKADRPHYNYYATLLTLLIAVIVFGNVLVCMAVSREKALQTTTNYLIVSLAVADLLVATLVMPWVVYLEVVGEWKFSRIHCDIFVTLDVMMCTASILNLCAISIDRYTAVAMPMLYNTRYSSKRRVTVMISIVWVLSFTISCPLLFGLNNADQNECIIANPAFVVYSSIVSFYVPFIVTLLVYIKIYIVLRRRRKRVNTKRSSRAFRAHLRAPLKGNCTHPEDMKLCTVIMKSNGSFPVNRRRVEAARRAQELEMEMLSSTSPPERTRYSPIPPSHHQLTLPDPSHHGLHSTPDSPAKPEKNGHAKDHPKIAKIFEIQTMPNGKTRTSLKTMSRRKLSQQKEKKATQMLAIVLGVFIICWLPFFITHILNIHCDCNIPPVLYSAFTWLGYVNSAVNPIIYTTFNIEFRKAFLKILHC
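Agonist mode: compounds alone added to overnight-plated D2 PathHunter cells for 90 min at 37 C, with 57 uM final dopamine (EC100) defining full response. Beta-arrestin recruitment detected by chemiluminescent reagent, read after 1 h at ambient temperature.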
Starred values were filed as active, the others as inactive; ? = inconclusive; / = no result given; & = joins results of further samples; [ ] = another dose, or the depositor's remark.

No.	compound	CtBP-E1A inh	Six1-Eya2 inh	PINK1 expr mod	TRPML1 inh	TRPML1 ag	D2 ag
1	O=[N+]([O-])c1ccc2c([N+](=O)[O-])ccc3c2c1CC3	0	-19	-0.6%	5	-0.4	?
2	CCCC(=O)Nc1cccc(NC(=O)c2ccc3c(c2)OCCO3)c1	8	6	3.4%[38.3 µM]	-1	1.5	2.5
3	COc1cccc(CNC(=O)CN(C)S(=O)(=O)c2cnc[nH]2)c1	37	27	2.1%	-7	0.3	-3.3
4	NC(=O)C1CCN(C(=O)C2(NC(=O)Nc3cccc(F)c3)CCCCC2)CC1	5	5	7.1%	3	0.4	3.0
5	O=C(Nc1ccccc1)c1cc(N2CCOCC2)nc2ccccc12	5	5	1.0%	-22	0.2	-3.2
6	Cc1ccc(C(=O)NC(=O)CSc2ncccc2C(=O)O)cc1	3	1	0.1%	-4	1.1	-3.8
7	CC(=O)C1=C(O)C(=O)N(c2ccc(Br)cn2)C1c1cccc([N+](=O)[O-])c1 (stereo not drawn)	-24	4	1.2%	-1	0.1	3.5
8	CCOC(=O)C(Cc1ccccc1)NC(=O)Cn1nnc(-c2ccc(SC)cc2)n1 (stereo not drawn)	-2	4	2.6%	-5	0.8	0.5
9	O=C(CC(Nc1ccccc1)C(=O)O)c1ccccc1 (stereo not drawn)	1	2	-0.4%	-8	0.4	-1.7
10	COc1ccc(CN(C)C2CCN(C)CC2)cc1OC	/	7	-0.4%	-4	-0.3	-4.1
11	CCCCNC(=O)C(=O)N/N=C/c1cccc(Br)c1	7	-1	-0.5%	11	0.4	-3.0
12	CCO[C@@H]1OC(C(N)=O)=C[C@H](c2ccc3c(c2)OCO3)[C@H]1CCCO	7	7	-1.8%	16	-0.5	-2.1
13	CC(=O)Nc1ccc(S(=O)(=O)N(C)CC(=O)OCC(=O)N2CCCC2=O)cc1	1	7	1.6%	8	0.5	3.2
14	COc1ccc(S(=O)(=O)NC(N)=NCCc2ccc(OC)c(OC)c2)cc1C	-11	7	-0.3%	10	2.1	-1.2
15	O=C(COc1ccc2c3c(c(=O)oc2c1)CCC3)Nc1ccc(CCO)cc1	1	0	2.3%	-5	-0.4	2.2
16	Fc1ccc(OCCOCCNCC2CCCO2)cc1 (stereo not drawn)	-6	0	-2.8%	4	3.7	-2.8
17	C[C@@H]1CN([C@@H](C)CO)C(=O)CCCn2nncc2CO[C@H]1CN(C)S(=O)(=O)c1ccc2c(c1)OCCCO2	-22	6	3.1%	28	-0.3	-2.9
18	Fc1ccc(C(c2nnnn2C2CCCC2)N2CCc3ccccc32)cc1 (stereo not drawn)	-26	-8	0.9%	20	2.9	2.6
19	O/N=C/c1cn(-c2ccccc2)nc1-c1ccc2c(c1)OCCO2	-1	1	-1.3%	-2	0.0	1.5
20	O=C(c1ccco1)N(c1ccccn1)c1ccccn1	1	0	2.9%	-14	0.4	-1.7

Profiles as entered above. Screens in order: CtBP-E1A inh	Six1-Eya2 inh	PINK1 expr mod	TRPML1 inh	TRPML1 ag	D2 ag
Record of `CCOC(=O)C(Cc1ccccc1)NC(=O)Cn1nnc(-c2ccc(SC)cc2)n1` (stereo not drawn) = -2	4	2.6%	-5	0.8	0.5
Record of `CCCCNC(=O)C(=O)N/N=C/c1cccc(Br)c1` = 7	-1	-0.5%	11	0.4	-3.0
Record of `COc1cccc(CNC(=O)CN(C)S(=O)(=O)c2cnc[nH]2)c1` = 37	27	2.1%	-7	0.3	-3.3

Additional structures follow:
No.	compound	CtBP-E1A inh	Six1-Eya2 inh	PINK1 expr mod	TRPML1 inh	TRPML1 ag	D2 ag
21	CN1N=C(C(=O)N2CCCC(C(=O)c3cccc(C(F)(F)F)c3)C2)CCC1=O (stereo not drawn)	2	7	3.4%	1	1.3	6.5
22	CCCN1C(=O)/C(=C/c2ccc(N3CCCC3)c(C)c2)NC1=S	-19	-16	9.8%	-4	67*	-2.8
23	Cc1cc(Cl)cc2c1NC(=O)[C@]21[C@@H]2C(=O)N(Cc3ccccc3)C(=O)[C@@H]2[C@@H]2CCCN21	-4	-8	-3.3%	-4	5.2	-6.5
24	COc1cc(NC(=O)C(Cc2ccccc2)NS(=O)(=O)c2cccc3nsnc23)cc(OC)c1 (stereo not drawn)	/	/	-0.4%	12	0.5	/
25	CC1CC(C)CN(C(=O)CCc2nnc3ccc(N4CCCCC4)nn23)C1 (stereo not drawn)	2	1	1.8%	3	-1.3	-6.6
26	CC(=O)Nc1ccc(S(=O)(=O)N2CCC(c3nc4c(nnn4Cc4ccccc4Cl)c(=O)[nH]3)CC2)cc1	-17	-13	7.9%	23	0.4	-2.8
27	CC1=NN(c2ccc([N+](=O)[O-])cc2)C(c2ccccc2)C1 (stereo not drawn)	-3	0	2.6%	11	1.4	-4.8
28	Cc1nn(-c2ccccc2)cc1C(c1c(N)[nH]c(=S)[nH]c1=O)c1c(N)[nH]c(=S)[nH]c1=O	/	1	0.7%	-2	0.0	0.8
29	C=C(C)CNC(=S)N/N=C/c1ccc([N+](=O)[O-])cc1	9	0	5.1%	-11	1.5	0.2
30	O=C(CS(=O)(=O)c1ccccc1)Nc1ncc([N+](=O)[O-])s1	-17	6	0.5%	8	-0.5	-6.3
31	Cc1ccc(CCCOC(=O)C[N+]2(C)CCOCC2)cc1	5	6	-0.9%	-5	0.2	-0.8
32	COc1cccc(NC(=O)CCNS(=O)(=O)c2ccc(Br)s2)c1	-4	3	2.2%&1.2%	-1&21	1.0&1.9	-13
33	Cc1cccc(C)c1OCc1cc(C(=O)N2CCNC(=O)C2)no1	3	0	2.8%	46	-0.2	-0.5
34	Cc1nn(-c2ccccc2)c(N2CCCC2)c1/C=N/n1cnc2scc(-c3ccccc3)c2c1=O	4	0	1.1%&3.7%	11	-1.0&0.4	-2.4
35	O=C(Nc1cc([N+](=O)[O-])ccc1O)c1cccc([N+](=O)[O-])c1	0	12	5.2%	-7	-0.6	-2.2
36	Cc1cccc(C)c1-n1nnnc1C(c1ccnc2ccccc12)N1CCN(c2ccccc2F)CC1 (stereo not drawn)	0	22	3.2%	/	15	/
37	COc1ccc(C(C(=O)NCc2ccccc2)N(C(=O)c2snc(C(N)=O)c2N)C2CCCC2)cc1 (stereo not drawn)	6	0	0.3%	-8	2.1	0.7
38	Cc1nc(-c2ccc3c(c2)OCCCO3)cs1	14	11	1.7%	-26	-0.6	-1.7
39	Cc1ccc(C(=O)Nc2ccc(C(=O)O)cc2)cc1S(=O)(=O)NCc1ccccc1	17	18	3.0%	-5	28	1.3
40	CCCCn1c(SCC(=O)NCCc2ccc(OC)c(OC)c2)nc2c1c(=O)n(C)c(=O)n2C	2	-1	4µM*	2	0.3	-1.1
41	COc1ccc2nc(SCC(=O)/C(C#N)=C(\C)N)[nH]c2c1	3	-2	0.3%	0	-0.3	-3.2
42	O=S(=O)(c1ccc(C(F)(F)F)cc1)N1CCN(CCc2ccccc2)CC1	4	5	2.7%	21	0.9	-2.3
43	Cc1ccsc1S(=O)(=O)N1CCCC(CCC(=O)NCc2ccccc2F)C1 (stereo not drawn)	-8	1	1.1%	45	2.8	-4.6
44	CCOc1c(C)cnc2c1c(=O)n(Cc1ccccc1F)c(=O)n2C	1	2	1.6%	18	-0.7	-1.0
45	CCOc1ccc(C(=O)Nc2ccc(N3CCN(C)CC3)cc2)cc1Br	-1	0	?	-29	0.5	0.4
46	CCOc1cccc(C(=O)N(Cc2ccc(C)o2)C2CCS(=O)(=O)C2)c1 (stereo not drawn)	/	/	-0.9%	-14	-0.1	/
47	Cc1ccc(C(=O)OCC(=O)NCc2ccc(Cl)cc2Cl)o1	5	0	5.3%	16	1.5	7.1
48	O=C(CN1C(=O)c2ccccc2S1(=O)=O)Nc1cccc(S(=O)(=O)N2CCCCC2)c1	-5	-1	4.1%	48	0.6	-2.2
49	Nn1cc(-c2ccccc2)nc1SCC(=O)Nc1ccc2c(c1)OCO2	?	?	0.5%	-17	-0.2	-2.9
50	CCOC(=O)CSc1cccc2cccnc12	-92*	-89*	1.8%	1	-0.3	-3.4
51	CCOc1ccc(CNC(=O)CCC(=O)n2ncc3ccc(Cl)cc32)cc1	2	9	-1.1%	-7	-0.3	0.2
52	Cc1sc2ncn(CC(=O)N3CCN(c4ccccc4F)CC3)c(=O)c2c1S(=O)(=O)N1CCC(C)CC1	/	/	-0.2%	19	-0.1	/
53	CCCc1cc(=O)[nH]c(SCC(=O)N(C)C2CCCCC2)n1	/	3	3.2%	-6	0.2	-2.4
54	COC(=O)c1c(NC(=O)/C=C/c2ccc3c(c2)OCO3)sc(C)c1C	-2	8	5.2%	-14	-0.5	0.7
55	COc1ccc(CN(C)CC(=O)Nc2sc3c(c2C#N)CCC3)cc1OC	-1	-18	0.9%	18	0.9	-5.2
56	CN(C1=NS(=O)(=O)c2ccccc21)c1ccc(OC(=O)c2ccncc2)cc1	-11	5	0.2%	-5	1.2	2.7
57	CCOC(=O)N1CCN(C(=O)COC(=O)CNC(=O)c2ccc(Cl)cc2Cl)CC1	-3	6	1.1%	-8	-0.8	-4.7
58	O=C(N/N=C/c1ccc(-c2ccc([N+](=O)[O-])cc2)o1)C(O)c1ccccc1 (stereo not drawn)	6	-14	3.1%	8	0.4	6.5
59	CC1CC(C)CN(C(=O)C2CCN(S(=O)(=O)c3cccc4cccnc34)CC2)C1 (stereo not drawn)	0	-2	-1.1%	11	-0.7	0.3
60	CCc1nc2ccc(C(=O)N3CCN(c4ccc([N+](=O)[O-])cc4)CC3)cc2nc1CC	/	?	1.1%	-3	1.3	2.8

Ordered by SMILES length (smallest number first): part of the list above
No.	compound	CtBP-E1A inh	Six1-Eya2 inh	PINK1 expr mod	TRPML1 inh	TRPML1 ag	D2 ag
49	Nn1cc(-c2ccccc2)nc1SCC(=O)Nc1ccc2c(c1)OCO2	?	?	0.5%	-17	-0.2	-2.9
51	CCOc1ccc(CNC(=O)CCC(=O)n2ncc3ccc(Cl)cc32)cc1	2	9	-1.1%	-7	-0.3	0.2
54	COC(=O)c1c(NC(=O)/C=C/c2ccc3c(c2)OCO3)sc(C)c1C	-2	8	5.2%	-14	-0.5	0.7
42	O=S(=O)(c1ccc(C(F)(F)F)cc1)N1CCN(CCc2ccccc2)CC1	4	5	2.7%	21	0.9	-2.3
58	O=C(N/N=C/c1ccc(-c2ccc([N+](=O)[O-])cc2)o1)C(O)c1ccccc1 (stereo not drawn)	6	-14	3.1%	8	0.4	6.5

Going on with the list.
No.	compound	CtBP-E1A inh	Six1-Eya2 inh	PINK1 expr mod	TRPML1 inh	TRPML1 ag	D2 ag
61	COc1ccc(OC(C)C(=O)Nc2ccc(F)cc2F)cc1 (stereo not drawn)	/	-4	1.4%	-2	0.1	14
62	Cc1ccc(-c2ccc(=O)n(Cc3c(F)cccc3Cl)n2)cc1	0	-6	7.4%	23	2.4	-0.8
63	O=S(=O)(NC(=NCc1ccccc1)c1ccccc1)c1ccccc1	3	0	0.6%	3	0.2	-3.1
64	Cn1c2ccccc2c2cc(/C=N/NC(=O)c3ccccc3F)ccc21	-9	?	-0.4%	-11	1.3	-2.1

Compound activity from PubChem BioAssay.
